Source: PubChem BioAssay
Bfl-1 A1 inh = caspase 3/7 activation in MEF A1-2A-BIM cells, primary screen, A1 inhibitor project, cell-based, luminescence, HTS | Caspase-Glo 3/7 luminescence, 3 h; percent of clofoctol response, vehicle zero | caspase activation, % (no concentration beside the values) | hit rate 0.066% among 330,000;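 active = over half of replicate activation scores above 10%, or exactly half above 10 with the replicate mean above 10; inconclusive = replicate mean below 10 yet half the replicates above 10; inactive = over half of replicates below 10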;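 also: wells of about 30 µL received 50 nL stock; many hits fall short of the cut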
Beta cell apopt = inhibitors of cytokine-induced beta cell apoptosis, primary screen, luminescence. protection from apoptosis, % (test concentration not listed). hit rate 0.8% among 300,000. INS-1E cytokine-induced death, ATP luminescence, 48 h; percent of positive-control rescue, neutral wells zero;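 active = all replicates at 75% or more, or half of them and the mean; inconclusive = half reach 75% but not the mean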;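 also: 0% = cytokine-treated negative control wells and 100% = positive control rescue; higher means more ATP so stronger rescue from cytokine killing; wells of about 40 µL received 100 nL stock; the first replicate is given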
Ecoli growth = E. coli growth inhibition, primary screen, OD600 | Escherichia coli growth, 23 h; active compounds read low | OD600 absorbance (test concentration not listed) | hit rate 0.21% among 330,000 | AID 1053175, 2014;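 active = OD600 absorbance below the run mean of sample wells minus 3.6 SD, in any replicate, cut at about 0.56 in these data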;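 also: stock transfer was 300 nL into about 60 µL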
UCH37 DUB inh = inhibitors of human UCH37 deubiquitinase, primary screen, biochemical, Ub-AMC cleavage, fluorescence; Ubiquitin carboxyl-terminal hydrolase isozyme L5 (Homo sapiens), Q9Y5K5; purified proteasome/UCH37; inhibition, % (no concentration beside the values); hit rate 0.33% among 330,000; AID 588478, 2011;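 active = mean of two replicates above 20%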;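 also: 0% = compound-free wells with enzyme and 100% = wells lacking proteasome; stock transfer was 100 nL into about 20 µL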
Target sequence (Q9Y5K5 whole entry, looked up): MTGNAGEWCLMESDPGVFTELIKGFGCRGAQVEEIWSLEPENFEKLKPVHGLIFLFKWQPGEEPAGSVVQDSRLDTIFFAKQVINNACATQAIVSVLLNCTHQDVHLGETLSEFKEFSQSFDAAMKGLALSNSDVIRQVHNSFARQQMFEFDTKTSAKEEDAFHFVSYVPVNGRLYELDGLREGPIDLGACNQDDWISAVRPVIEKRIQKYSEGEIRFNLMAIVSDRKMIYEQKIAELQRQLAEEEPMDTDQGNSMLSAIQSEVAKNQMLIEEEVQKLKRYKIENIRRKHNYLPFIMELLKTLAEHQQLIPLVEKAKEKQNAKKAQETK
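Material: human UCH37 enzyme supplied as purified proteasome complex. Measure: % inhibition of Ub-AMC cleavage fluorescence. Medium: pH 7.4 Tris-HCl (50 mM) with ovalbumin, ATP-MgCl2, DTT. Times: 30 min preincubation with enzyme, 25 min cleavage at room temperature. Detection: AMC fluorescence intensity at 355/460 nm.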
FGF22 binding = binders of human FGF22 protein, primary screen, FGF22 synaptogenesis inhibitor project, biophysical, thermal shift, single point. Fibroblast growth factor 22 (Homo sapiens), Q9HCT0. recombinant FGF22 thermal shift, SYPRO orange fluorescence; percent of sucrose octasulfate shift, DMSO zero. calls only at 9.99 µM. hit rate 1.5% among 340,000. AID 651658, 2012;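 active = melting point raised past a set limit in the mean and every replicate; inconclusive = no clear call; three in four hits are not shown here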
Target sequence (Q9HCT0 whole entry, looked up): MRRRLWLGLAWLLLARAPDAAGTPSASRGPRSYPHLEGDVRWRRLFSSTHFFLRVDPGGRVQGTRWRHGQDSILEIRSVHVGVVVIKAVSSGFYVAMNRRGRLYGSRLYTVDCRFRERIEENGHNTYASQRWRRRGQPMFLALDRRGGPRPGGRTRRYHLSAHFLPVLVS
T cruzi inh = inhibitors of intracellular T. cruzi growth, primary screen, luminescence, NIH3T3 host cells. T. cruzi beta-gal in NIH3T3, 90 h. inhibition, % (no concentration beside the values). hit rate 1.4% among 300,000. AID 1885, 2009;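 active = mean inhibition across valid replicates above about 55%, limit read from the data; inconclusive = mean below that limit but half or more replicates reach it; inactive = mean below it, under half of replicates reach it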;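 also: signal also drops with host cell toxicity which is not excluded here; 0% = plate median of DMSO wells and 100% = zero luminescence signal; higher percent means less beta-gal luminescence so fewer parasites; stock transfer was 50 nL into about 50 µL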
Ecoli rRNA inh = reduced GFP signal of wild-type E. coli, primary screen, bacterial rRNA inhibitor project, GFP/RFP fluorescence, OD600, single point; hit rate 1.6% among 350,000; GFP signal change (wild-type ribosome), % (concentration not given with the values); E. coli WT GFP vs humanized-ribosome RFP mutants, 24 h; active compounds read low; DMSO median 0, no signal -100;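 active = significant combined selectivity score with lowered wild-type GFP, culture density cut under 30%, mutant RFP and density less affected; inactive = any of these conditions unmet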; also: one replicate is shown; some compounds called inactive have numbers as strong as hits
AF4-AF9 inh = inhibitors of AF4 peptide binding to AF9, primary screen, biochemical, AlphaScreen, biotin-AF4 peptide, FLAG-AF9, single point; Protein AF-9 (Homo sapiens), P42568; inhibition, % at 10 µM; hit rate 0.47% among 350,000;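 active = every replicate reaching a set inhibition limit, whatever the replicate mean, cut at about 25% in these data; inconclusive = mean inhibition reaches that limit but some replicates miss it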;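 also: 0% = plate neutral control median and 100% = total signal loss; the record names both 10 and 1 µM as test concentration; the first replicate is given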
Target sequence (P42568 whole entry, looked up): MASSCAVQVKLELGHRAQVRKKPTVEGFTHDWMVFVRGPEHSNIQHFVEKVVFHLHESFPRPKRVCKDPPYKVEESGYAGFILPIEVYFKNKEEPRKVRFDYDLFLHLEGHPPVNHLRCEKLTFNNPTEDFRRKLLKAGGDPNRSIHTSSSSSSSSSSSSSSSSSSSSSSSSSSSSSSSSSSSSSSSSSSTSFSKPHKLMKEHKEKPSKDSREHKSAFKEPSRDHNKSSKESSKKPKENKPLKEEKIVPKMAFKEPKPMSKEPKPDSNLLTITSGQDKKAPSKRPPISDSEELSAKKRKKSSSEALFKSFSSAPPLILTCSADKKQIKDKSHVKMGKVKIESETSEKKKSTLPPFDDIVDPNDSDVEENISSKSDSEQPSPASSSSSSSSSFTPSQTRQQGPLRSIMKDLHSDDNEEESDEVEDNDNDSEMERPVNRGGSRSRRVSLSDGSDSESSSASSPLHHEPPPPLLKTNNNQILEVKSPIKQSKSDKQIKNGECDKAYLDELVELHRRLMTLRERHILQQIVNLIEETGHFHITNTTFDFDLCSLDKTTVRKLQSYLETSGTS
Ecoli rRNA inh OD600 = second read-out of Ecoli rRNA inh, no call of its own (marks repeat the call); OD600 change, %; measured here: OD600 growth;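 optical density of the mix in the first replicate; 0 = DMSO median and -100 = no signal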
Ecoli rRNA inh RFP = second read-out of Ecoli rRNA inh, no call of its own (marks repeat the call); RFP signal change, %; measured here: RFP humanized mutant strains;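 first replicate; 0 = DMSO median and -100 = no signal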
Active calls of the source: *; i = inactive; ? = inconclusive; . = not tested or not shown. Only part of the results is shown; rates above refer to the full screens.

The line under a structure holds: UCH37 DUB inh, Ecoli growth, T cruzi inh, Ecoli rRNA inh OD600, AF4-AF9 inh, Ecoli rRNA inh RFP, Beta cell apopt, Bfl-1 A1 inh, Ecoli rRNA inh, FGF22 binding
COc1ccc(-n2c(N)c(C(=O)NCc3ccco3)c3nc4ccccc4nc32)cc1OC
→ -15, 0.74, 16, ., ., ., -2, -0.4, ., .
Cc1cc(C)c(NC(=O)CSc2nnc(CN3CCOCC3)n2C)c(C)c1
→ 5.0, 0.68, -8, 13, -0.3, -1.0, -3, -0.1, 5, i
O=C(CCc1nnc(CCCCc2ccccc2)o1)NCCCc1cccnc1
→ -4.4, 0.63, ?, -21, 3.7, -3.2, 4, -0.7, -20, i
CCOC(=O)CNC(=O)C1(/C=C/c2ccccc2)CC(=O)N1c1ccc(C)cc1 (centres undefined)
→ 1.2, 0.7, 1, 1, 4.1, 1.2, 0, 0.1, 5, i
CCCn1c(CN2CCN(C(=O)OCC)CC2)nc2cc([N+](=O)[O-])ccc21
→ 3.2, 0.67, -10, 2, -0.5, 0.9, 6, -0.3, -1, i
CCc1ccc(Nc2n[n+](-c3ccccc3)c(-c3ccc(OC)c(Br)c3)s2)cc1
→ 3.3, 0.62, 38, -14, 4.2, -2.5, 4, -1.5, -6, i
CCc1ccccc1NC(=O)CN(C)Cc1nc(N)nc(Nc2ccccc2C)n1
→ 1.4, 0.73, -5, ., ., ., -8, 0.3, ., .
Nc1ccn(Cc2cccc(Cl)c2)n1
→ 1.7, 0.67, 5, -8, -1.1, -2.0, ., 0.6, -13, i
COc1ccc(OC)c(Nc2nc(-c3sc(C)nc3C)cs2)c1
→ 4.6, 0.66, 28, ., ., ., 1, 0.3, ., .
CC(C)OC(=O)c1nn2c(C(F)(F)F)cc(-c3ccc(Br)o3)nc2c1Br
→ -22, 0.75, 34, ., ., ., 1, -0.2, ., .
CCc1ccc2nc(NC(=O)C3CSC4(C)CCC(=O)N34)sc2c1 (centres undefined)
→ 0.0, 0.61, -2, 1, 4.3, -0.9, -1, -0.8, -1, i
CC(OC(=O)/C=C/c1ccc2ccccc2n1)C(=O)N(C)c1ccccc1 (centres undefined)
→ -1.4, 0.7, ., 2, -2.2, -1.5, 2, -0.6, 0, i
C=CCn1c(NC(=O)c2ccc(Br)o2)c(C(=O)OCC)sc1=S
→ 7.5, 0.68, -10, -13, -5.9, 0.6, ., -0.2, -15, i
COc1ccc(/C=C/C(=O)OCC(=O)NCCC2=CCCCC2)cc1OC
→ -4.2, 0.66, -7, -49, 0.1, 7.4, -2, -0.1, -35, i
CC(C)(C)NC(=O)CSc1ccc(C(C)(C)C)cc1
→ 3.4, 0.7, -1, ., ., ., -1, -0.3, ., .
COc1ccc(/C=N/Nc2cc(C)nc3ccc(OC)cc23)c(OC)c1
→ ., ., 58*, -75, 16, -13, 117*, 0.0, -50, i
Cc1cc(NS(=O)(=O)c2ccc(NC(=S)Nc3ccc(Cl)cc3C)cc2)no1
→ 4.0, 0.7, -7, ., -0.4, ., -1, -1.1, ., i
O=C1CN(S(=O)(=O)c2cccc(Br)c2)CCN1
→ 0.6, 0.65, ., 9, -1.2, -8.5, -2, 0.1, 6, i
C/C(CCC(=O)O)=N/Nc1ccc([N+](=O)[O-])cc1[N+](=O)[O-]
→ ., ., -2, 0, 0.8, -0.7, -2, -0.1, -2, i
Fc1ccc(CN2CCN3CCCC3C2C2CCCCC2)cc1F (centres undefined)
→ 0.7, 0.7, ., ., ., ., -4, -1.2, ., .
O=C(CN1CCN(c2ccc(Cl)cc2)CC1)N1CCCC1
→ 2.7, 0.69, -5, ., ., ., -4, -0.3, ., .
CCOC(=O)c1cnc(SC)nc1Oc1cccc(NS(=O)(=O)c2ccc(Cl)cc2)c1
→ 3.9, 0.73, 32, ., ., ., 1, 0.3, ., .
CCOC(=O)C(=Cc1ccc(-n2ccnc2)cc1)C(=O)OCC
→ 6.6, 0.69, -9, 5, -0.6, -4.0, -16, 0.3, 2, i
Cc1occc1C(=O)NNC(=S)NCc1ccccc1
→ 6.4, 0.68, -11, 3, 2.1, -5.6, -1, 0.7, 10, i
O=C(NCC(c1cccs1)N1CCOCC1)c1ccccc1NS(=O)(=O)c1ccc(Cl)cc1 (centres undefined)
→ 1.7, 0.71, 9, -34, 0.4, -1.7, 13, -0.6, -28, i
COc1ccccc1NS(=O)(=O)c1cc(NC(=O)c2cccc(S(=O)(=O)N(C)C)c2)ccc1N1CCOCC1
→ 4.6, 0.7, ., -2, -0.5, 8.5, ., ., -3, i
CC(=O)n1cc(Nc2ccc([N+](=O)[O-])cc2)c2ccccc21
→ ., ., -10, 11, -1.9, -1.2, 4, -0.1, 22, .
O=C(OCC(=O)N1CCCC1)c1cccs1
→ 1.8, 0.71, -5, ., ., ., -7, 0.5, ., .
CC1CCN(C(=O)CSc2nc3ncccc3[nH]2)CC1
→ 0.4, 0.71, -15, 9, -9.0, 3.5, 4, -0.2, 9, i
COc1ccc(-c2cc(C(=O)N3CCCCCC3)c3cc(C)ccc3n2)cc1
→ i, 0.71, -10, -17, 3.6, 6.1, -9, 0.3, -9, i
Cc1cccc(NS(=O)(=O)c2cccc(C(=O)NCC3(N4CCCCC4)CCCCC3)c2)c1
→ 3.7, 0.62, -56, -2, -6.2, 1.3, 3, -1.7, -1, i
Cc1ccc(S(=O)(=O)N2CC(O)C[C@H]2C(=O)OCC(=O)c2ccccc2)cc1 (some centres undefined)
→ 0.8, 0.69, -12, ., ., ., 1, 0.6, ., .
COc1ccc(OCc2cc(C(=O)N3C[C@H]4CC[C@H]3C4)no2)c(Cl)c1
→ ., ., 3, -21, -3.0, 6.4, 4, -1.0, -2, i
Cc1ccc(S(=O)(=O)Nc2cccc(-c3ccc(N4CCCCCC4)nn3)c2)cc1C
→ 5.7, 0.73, 35, -5, -3.5, 2.1, -1, -0.9, -7, i
Cc1ccc(C(C)NC(=O)c2cccs2)cc1C (centres undefined)
→ 0.6, 0.69, -14, 8, -2.0, -1.2, -2, 1.0, 4, i
COc1ccc(/C=C/C(=O)C2CC2)cc1COc1c(C)cccc1C
→ -1.2, 0.68, 29, 2, 7.9, -2.2, 11, 1.5, 3, .
Cn1nccc1C(=O)N1CCN(c2ccc(F)cc2)CC1
→ -0.5, 0.69, -6, ., ., ., -4, -0.4, ., .
CCCCNc1ccc(S(=O)(=O)c2cccc([N+](=O)[O-])c2)cc1[N+](=O)[O-]
→ 3.0, 0.68, 49, ., ., ., -9, -0.5, ., .
CCOc1ccc(-c2c(C#N)c(N)nc3sc(C(=O)c4ccccc4)c(N)c23)cc1
→ ., ., 3, -2, -22, 7.6, -1, -0.5, 25, i
CCn1c(=N)n(CC(O)c2ccco2)c2ccccc21 (centres undefined)
→ 1.5, 0.7, 5, ., ., ., -5, -0.6, ., .

Three entries out of the list above, sorted by the number in Ecoli rRNA inh, lowest first:
compound | UCH37 DUB inh | Ecoli rRNA inh OD600 | AF4-AF9 inh | Ecoli rRNA inh RFP | Bfl-1 A1 inh | Ecoli rRNA inh
COc1ccc(/C=N/Nc2cc(C)nc3ccc(OC)cc23)c(OC)c1 | . | -75 | 16 | -13 | 0.0 | -50
CCCn1c(CN2CCN(C(=O)OCC)CC2)nc2cc([N+](=O)[O-])ccc21 | 3.2 | 2 | -0.5 | 0.9 | -0.3 | -1
Cc1ccc(C(C)NC(=O)c2cccs2)cc1C (centres undefined) | 0.6 | 8 | -2.0 | -1.2 | 1.0 | 4

Next part.
The line under a structure holds: UCH37 DUB inh, Ecoli growth, T cruzi inh, Ecoli rRNA inh OD600, AF4-AF9 inh, Ecoli rRNA inh RFP, Beta cell apopt, Bfl-1 A1 inh, Ecoli rRNA inh, FGF22 binding
CCOC(=O)c1oc2ccccc2c1NC(=O)COc1cccc(OC)c1
→ -25, 0.75, 21, ., 5.9, ., -4, -0.8, ., i
CCOC(=O)C1CCCN(c2c(C(=O)c3ccccc3)cnc3ccc(OC)cc23)C1 (centres undefined)
→ 3.4, 0.72, 16, -3, 13, 3.4, -1, -0.7, -1, i
O=C(Oc1ccc(-c2cnc3ccccc3n2)cc1)c1ccc(Br)o1
→ -3.4, 0.68, 6, 0, 4.3, -4.8, ., -7.8, 6, i
CCOC(=O)c1ccccc1NC(=O)COC(=O)C(CCSC)NC(=O)COc1ccccc1 (centres undefined)
→ 5.0, 0.7, -4, ., ., ., 6, 0.9, ., .
CCOc1cc(CNCCCN2CCOCC2)cc(Cl)c1OCC(=O)NC(C)(C)C
→ 5.4, 0.64, 51, 5, 0.7, 7.2, 0, 0.9, 9, i
O=C(NCCc1c[nH]c2ccccc12)C1CCC(Cn2c(=S)[nH]c3ccccc3c2=O)CC1 (centres undefined)
→ 3.7, 0.72, 75*, ., ., ., 11, 1.7, ., .
CC(=NC(C)C)C1=C(O)CCC1=O
→ 0.1, 0.7, -6, ., ., ., -2, 0.0, ., .
O=C(O)CCSC(=S)N1CCOCC1
→ 1.0, 0.71, -1, -3, 1.3, -6.3, -3, ?, -4, i
N#CC1=C(N)Oc2cc3ccccc3cc2C1c1cccs1 (centres undefined)
→ 3.8, 0.74, -5, ., ., ., 12, -0.6, ., .
COc1ccc(/C=C/C(=O)Nc2ccccc2C(=O)O)cc1
→ 11, 0.66, -11, -7.4*, -0.5, -7.0*, 10, -8.3, -36*, .
CC(=O)NCCC(=O)Nc1cc(S(=O)(=O)N2CCOCC2)ccc1N1CCCC1
→ 3.1, 0.71, -11, 5, -1.4, 0.2, -5, -0.1, 11, i
CC(CNC(=O)COC(=O)c1cccnc1Cl)c1ccccc1 (centres undefined)
→ 4.5, 0.69, ., 3, -1.5, 0.6, ., ., 10, i
Cc1cccc(NC(=O)/C(C#N)=C/c2ccc[nH]2)c1C
→ 4.4, 0.74, 14, 2, -3.1, 0.8, -4, 0.7, 3, i
COC(=O)c1c(NC(=O)c2ccccc2C(=O)O)sc2c1CCC2
→ 5.7, 0.67, 4, -5.5*, -11, -6.8*, -1, 0.5, -21*, i
